Screens deposited in PubChem by several laboratories.
HNF4A DNA FP = change in binding of human HNF4A to DNA, primary screen, biochemical, fluorescence polarization, FITC-DNA; Hepatocyte nuclear factor 4-alpha (Homo sapiens), P41235; activity change, % at 10 µM; 360,000 compounds, 0.3% hits; 1 h; in the data active = activity change above about 30%, passing the limit was not always enough;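 note: controls were the assay level and a saturating level of protein; the project sought stronger binding though the title names inhibitors; some compounds called inactive have numbers as strong as hits; positive values seem to mean higher polarization but the record does not say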
Target sequence (P41235 whole entry, looked up): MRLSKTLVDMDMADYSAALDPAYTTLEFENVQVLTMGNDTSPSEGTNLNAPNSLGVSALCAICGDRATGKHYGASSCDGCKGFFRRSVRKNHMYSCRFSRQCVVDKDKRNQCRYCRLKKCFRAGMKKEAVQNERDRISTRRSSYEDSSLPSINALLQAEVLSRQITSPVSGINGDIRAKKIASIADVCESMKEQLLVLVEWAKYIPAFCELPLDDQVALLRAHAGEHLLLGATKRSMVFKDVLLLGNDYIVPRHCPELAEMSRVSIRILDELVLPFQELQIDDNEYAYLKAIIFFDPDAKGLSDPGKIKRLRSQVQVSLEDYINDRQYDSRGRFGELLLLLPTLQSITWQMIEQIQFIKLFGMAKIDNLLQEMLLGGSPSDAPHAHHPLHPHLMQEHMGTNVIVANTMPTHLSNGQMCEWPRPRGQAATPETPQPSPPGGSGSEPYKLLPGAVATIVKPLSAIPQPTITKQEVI
Ecoli growth = E. coli growth inhibition, primary screen, OD600. AID 1053175, 2014. OD600 absorbance (no concentration beside the values). 330,000 compounds, 0.21% hits. Escherichia coli growth, 23 h; active compounds read low;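 active = OD600 absorbance below the run mean of sample wells minus 3.6 SD, in any replicate, cut at about 0.56 in these data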;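 note: stock transfer was 300 nL into about 60 µL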
Beta2AR agonist = beta2AR agonists driving receptor internalization, primary screen, cell-based, FAP fluorogen, flow cytometry; 340,000 compounds, 0.43% hits; Beta-2 adrenergic receptor (Homo sapiens), P07550; AID 504454, 2011; response, % (no concentration beside the values); Am2.2-beta2AR cells; reference of the scale not given here;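 active = response above a set limit, near 3 SD of response in nonfluorescent compounds, cut at about 42% in these data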;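 note: stock transfer was 100 nL into about 11 µL; a reference agonist was the positive control; negative values mostly stem from fluorescent compounds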
Vif TR-FRET = inhibitors of Vif binding to APOBEC3G peptide, primary screen, biochemical, TR-FRET, GST-Vif 1-94, biotin-A3G peptide, dose response retest (AID 1117319). inhibition, %, or IC50 in µM where a hit was titrated. TR-FRET GST-Vif / biotin-A3G peptide binding; higher % means a stronger effect; test concentration not given here; strong numbers were not always called active. 260,000 compounds, 0.57% hits;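 active = above the screen mean plus three standard deviations and confirmed in dose response; inconclusive = results disagree or hit not tested in dose response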;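 note: Vif residues 1-94 fused to GST binding biotinylated APOBEC3G peptide 110-148; 0% = full assay without inhibitor and 100% = GST in place of GST-Vif; retest series ran down from 100 µM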
A1 inh = caspase 3/7 activation in MEF A1-2A-BIM cells, primary screen, A1 inhibitor project, cell-based, luminescence, HTS. Caspase-Glo 3/7 luminescence, 3 h; percent of clofoctol response, vehicle zero. caspase activation, % (concentration not given with the values). 330,000 compounds, 0.066% hits. AID 2462, 2010;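 active = over half of replicate activation scores above 10%, or exactly half above 10 with the replicate mean above 10; inconclusive = replicate mean below 10 yet half the replicates above 10; inactive = over half of replicates below 10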;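 note: wells of about 30 µL received 50 nL stock; many hits fall short of the cut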
LANA-H2A inh = blockers of LANA interaction with H2A/H2B – biochemical, FP readout, HTS, primary screen | Protein LANA1 (Human herpesvirus 8 type P (isolate GK18)), Q9QR71 | cell-free LANA-H2A/H2B peptide, fluorescence polarization | inhibition, % (test concentration not listed) | 320,000 compounds, 0.6% hits; in the data active = inhibition mostly above about 10%, no sharp cut-off; inactive = mostly below about 6.7%;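 note: stock transfer was 7.5 nL into about 10 µL; 0% = median of vehicle wells and 100% = median of positive control wells; one replicate is shown; the record names a cut of 25% in any replicate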
UCH37 DUB inh = inhibitors of human UCH37 deubiquitinase, primary screen, biochemical, Ub-AMC cleavage, fluorescence; Ubiquitin carboxyl-terminal hydrolase isozyme L5 (Homo sapiens), Q9Y5K5; 330,000 compounds, 0.33% hits; inhibition, % (no concentration beside the values); purified proteasome/UCH37;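 active = mean of two replicates above 20%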;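 note: 0% = compound-free wells with enzyme and 100% = wells lacking proteasome; stock transfer was 100 nL into about 20 µL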
Target sequence (Q9Y5K5 whole entry, looked up): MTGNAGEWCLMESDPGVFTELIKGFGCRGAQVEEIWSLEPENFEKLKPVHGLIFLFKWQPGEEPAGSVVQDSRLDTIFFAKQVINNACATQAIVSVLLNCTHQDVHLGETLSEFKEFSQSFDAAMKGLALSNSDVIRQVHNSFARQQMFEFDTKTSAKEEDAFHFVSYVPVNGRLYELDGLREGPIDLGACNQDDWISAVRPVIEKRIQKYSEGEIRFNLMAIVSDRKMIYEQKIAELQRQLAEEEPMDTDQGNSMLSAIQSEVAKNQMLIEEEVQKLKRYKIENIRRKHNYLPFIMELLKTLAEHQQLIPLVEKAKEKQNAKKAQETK
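System: Proteasome-associated human UCH37 deubiquitinase; Input: 0.15 nM proteasome in added enzyme buffer; Also added: Ub-AMC substrate from 1 µM stock; Incubation: 30 min compound-proteasome preincubation then 25 min substrate reaction, room temperature; Detection: fluorescence, ex 355 nm, em 460 nm; Read-out: % inhibition of Ub-AMC cleavage fluorescence; Benchmarks: no-proteasome and no-compound wells.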
The depositor's hits bear a star; i = inactive; ? = inconclusive; / = not tested or not shown; + = active, no number; & = joins results of further samples.

SMILES	HNF4A DNA FP	Ecoli growth	Beta2AR agonist	Vif TR-FRET	A1 inh	LANA-H2A inh	UCH37 DUB inh
CC(C)CC(O)C1CCN(C(=O)CCc2nnc(-c3ccc4c(c3)OCO4)o2)CC1 (stereo not drawn)	1.6	0.715	5.8	/	-0.2	-1.9	-1.4
O=C(NCc1cccnc1)C1CC(=O)N(CCc2ccccc2)C1 (stereo not drawn)	2.6	0.711	5.0	-4.7%	0.4	7.2	4.8
COc1cccc(-c2nnc3n2N=C(c2cccc(Br)c2)CS3)c1	0.2	0.704	-8.0	4.7%	-0.4	0.9	5.5
O=[N+]([O-])c1ccc2oc(-c3ccccc3)nc2c1	-4.2	0.67	-3.2	-8.1%	0.2	3.3	1.4
O=C(N/N=C/c1ccc[nH]1)c1ccccc1[N+](=O)[O-]	-0.3	/	5.4	/	0.3	-15.7	/
O=C(CSc1nccc(-c2cccs2)n1)Nc1cccc(Cl)c1Cl	-2.1	0.686	7.8	-1.4%	-0.7	2.0	5.8
O=C(NCc1cccs1)C1CCN(c2ccc(S(=O)(=O)N3CCOCC3)cc2Cl)CC1	-4.2	0.647	24.3	0.0%&-2.3%	0.9	2.1	2.9
Cc1ccc(S(=O)(=O)Nc2ccc(C(=O)N3CCN(c4ccccc4O)CC3)cc2)cc1[N+](=O)[O-]	-0.2	0.626	24.0	-0.5%	0.2	-0.4	1.6
Cc1c(C(=O)N(C)C(C)c2ccncn2)oc2c(F)cccc12 (stereo not drawn)	0.0	0.678	-1.4	/	0.2	3.8	1.5
O=C(Cn1nc(-c2ccc(Cl)cc2)ccc1=O)NCc1ccc2c(c1)OCO2	-0.9	0.799	-5.8	>100µM*	0.8	3.3	6.3
O=S(=O)(c1cccc(F)c1)N1CCc2sccc2C1c1ccc(OC(F)(F)F)cc1 (stereo not drawn)	-1.4	0.713	4.0	/	0.8	5.3	3.8
O=C(c1cnn(-c2cccc(F)c2)c1)c1ccccc1O	0.0	0.722	-7.0	1.3%	-6.3	-1.9	2.0
Cc1cccc(OCCCC(=O)O)c1	0.2	0.695	7.3	5.9%	-0.7	11.9	6.6
CC(C)(C)OC(=O)N1CCN(c2ccc([N+](=O)[O-])cc2)CC1	2.2	0.729	1.6	83.8%	0.9	0.1	2.9
Cc1ccccc1Cn1c(-c2ccc(=O)[nH]c2)nc2ccccc21	1.0	0.628	-1.5	-4.8%	-0.1	-1.1	-1.2
C=CC[C@@H](CC(=O)N[C@@H](CO)Cc1ccccc1)C(=O)N[C@H](COC(=O)[C@@H](CC=C)Cc1ccc(F)cc1)C(C)(C)C	-0.7	/	8.9	/	-0.1	1.1	1.6
N#Cc1cccc(NC(=O)CSc2ccc3c4c(cccc24)C(=O)c2ccccc2-3)c1	-14.7	0.696	-831.7	2.5%	2.1	-2.7	10.3
CCCN(CCC)Cc1c(C(=O)N/N=C/c2c[nH]c3ccccc23)nnn1-c1nonc1N	2.1	/	-4.0	/	-0.4	7.1	/
Cc1c(Cl)cc(-n2cnnn2)cc1[N+](=O)[O-]	1.5	0.699	-6.6	7.4%	-0.2	0.0	1.5
CC(C)(C)OC(=O)NCCc1nnc(SCc2ccc(Cl)cc2Cl)o1	5.9	0.681	-9.5	3.4%	-1.3	-7.7	4.3
C(=N\Nc1nc2ccccc2s1)/c1ccco1	-3.3	/	0.3	-5.6%	-7.2	-2.9	/
CC(C)(O)C#Cc1ccc(C(=O)N2CCN(C(=O)c3ccco3)CC2)cc1	1.9	0.701	-1.1	-5.9%	0.6	-1.9	1.4
CCOC(=O)N1CCC(Nc2c(NCCCN3CCN(c4ccc(OC)cc4)CC3)c(=O)c2=O)CC1	-7.6	0.672	-5.4	/	0.3	1.7	3.3
O=C1NN(c2ccccc2)C(=O)/C1=C/c1cccs1	/	/	/	11.5%	0.6	-1.2	/
CCc1nc(OCC(=O)c2ccccc2)c(C#N)c2c1COC(C)(C)C2	1.4	0.668	-3.2	-22.1%	-0.1	0.4	-0.4

More records.
SMILES	HNF4A DNA FP	Ecoli growth	Beta2AR agonist	Vif TR-FRET	A1 inh	LANA-H2A inh	UCH37 DUB inh
COc1ccc(-c2cc(N)n(S(=O)(=O)Cc3ccccc3)n2)c(OC)c1	-3.9	0.735	-5.7	25.2%	-0.4	-5.2	2.1
O=C(CSc1ccc(-c2cccnc2)nn1)Nc1ccc(Br)cc1	-0.4	0.649	-2.8	-23.0%	0.2	-3.1	-1.8
Cc1ccc(C(=O)Nc2ccc(N3CCOCC3)cc2)cc1	2.2	0.683	-0.1	30.0%	-1.5	-1.6	1.2
CCOc1ccc(N(CC(=O)Nc2ccccc2F)S(=O)(=O)c2c(C)[nH]c(=O)[nH]c2=O)cc1	0.3	0.6	-2.6	30.1%	1.0	2.0	-1.7
CC(c1ccccc1)n1c(-c2ccccc2F)n[nH]c1=S (stereo not drawn)	-0.5	0.719	-0.5	4.5%	-0.2	2.4	1.2
O=C(C1CCC1)N1CCc2cc(S(=O)(=O)NC3CCCC3)ccc21	1.4	0.675	-3.7	-3.0%	0.8	-1.7	0.3
COc1cc2[nH]c(=O)n(CCCCCC(=O)NCCCN3CCCC3=O)c(=O)c2cc1OC	-2.9	0.737	-0.5	1.2%	0.2	-0.9	-13.7
COCCCn1c(=O)/c(=C\c2ccccc2OC(C)C)s/c1=C(/C#N)C(=O)Nc1ccc(C(=O)O)cc1	26.5	/	-3.1	/	0.6	-172.5	/
C=CCN1C=C(C(=O)c2ccccc2)C(=O)CC1	1.8	0.71	2.0	-3.6%	/	/	3.3
CC1(C)C2CC=C(/C=N/NC(=O)c3ccccc3Br)C1C2 (stereo not drawn)	-1.2	/	7.3	/	-0.8	-0.9	/
CCOc1ccc(CCNC(=O)CS(=O)(=O)Cc2nc(-c3ccccc3F)oc2C)cc1	-2.3	0.691	-8.0	/	0.3	0.2	-2.1
CC[C@]12c3[nH]c4ccccc4c3CCN1C(=O)C(CC(=O)NC/C=C(\C)CCC=C(C)C)C[C@@H]2C(=O)N1CCN(C(=O)c2ccco2)CC1 (stereo partly drawn)	0.4	0.71	12.6	2.0%	-0.4	+	-0.6
COc1cc(=O)[nH]c(SCc2c(F)c(F)c(F)c(F)c2F)n1	2.2	0.676	2.4	?	1.9	3.3	-0.2
Cc1cccc(NC(=O)COc2nsnc2N2CCOCC2)c1	-1.2	0.72	5.7	-4.4%	-0.9	-2.1	1.5
O=C(c1ccc2c(c1)OCO2)C1CCCN(Cc2c(F)ccc(F)c2F)C1 (stereo not drawn)	0.9	0.66	2.5	/	0.1	4.9	-1.7
CCc1ccc(-c2cc(C(F)(F)F)n3nc(C(=O)Nc4cnn(Cc5ccccc5C)c4)cc3n2)s1	0.2	0.73	-5.7	5.9%	0.2	-0.3	i
CCOC(=O)C1CCN(c2nc(-c3ccccc3)nc3c2oc2ccccc23)CC1	-2.5	0.745	-4.6	-2.2%	0.1	0.6	-6.6
Cc1ccc(CNC(=O)C(CCC(N)=O)NC(=O)OCc2ccccc2)cc1 (stereo not drawn)	-2.5	/	-6.3	-6.9%	0.0	1.9	2.5
O=C(COc1ccc(Cl)cc1)NCc1nnc(SCC(=O)NCC2CCCO2)o1 (stereo not drawn)	-1.8	0.688	-6.5	13.1%	-1.4	6.0	2.6
Cc1cc(=O)c(C(=O)O)nn1-c1ccccc1	-2.2	0.738	2.8	10.6%	-0.8	1.6	4.3
CCN(CC(=O)NC(C)C)C(=O)CCNC(=O)c1ccc(Cl)cc1	0.0	0.678	-6.3	1.2%	-0.2	-4.2	2.3
CNC(=O)C(=O)NCCC1CCCCN1S(=O)(=O)c1cccs1 (stereo not drawn)	-2.7	0.648	-2.4	/	0.0	-0.2	1.6
CCO[C@H]1OC(C(=O)NCc2nc3ccccc3[nH]2)=C[C@@H](C2CC2)[C@@H]1CCCO	2.7	0.772	16.7	-6.9%	0.3	10.5	3.8
O=C(Cc1ccccc1F)NCC(=O)Nc1ccccc1Br	0.1	0.646	-4.9	-5.6%	0.2	-3.3	3.7
Cc1cccc(NC(=O)CN2CCC(C(=O)c3ccc4c(c3)OCCO4)CC2)c1	-2.8	0.656	-2.9	/	0.4	-2.8	-2.7

(continued)
SMILES	HNF4A DNA FP	Ecoli growth	Beta2AR agonist	Vif TR-FRET	A1 inh	LANA-H2A inh	UCH37 DUB inh
CC(=O)c1cc(NC(=O)c2ccccc2)c(=O)oc1/C=C/N(C)C	102.3*	0.677	-17.8	17.5%	0.2	-11.5	19.2
COc1ccccc1NC(=O)CSc1nnc(COc2ccc(Cl)cc2)n1Cc1ccco1	0.3	0.677	6.0	-0.7%	0.7	1.6	-0.1
CC(=O)c1c(C)nc(-c2ccc(Cl)cc2)nc1N=CN(C)C	0.7	0.705	7.2	-4.1%	-0.1	5.3	17.0
C=CCOC(=O)C1=C(C)NC(SCC(=O)N(CC)CC)=C(C#N)C1c1ccco1 (stereo not drawn)	0.1&0.5	0.685&0.691	-0.1&12.3	-3.1%&4.0%	-1.3	-4.3	-0.8&-3.4
Cc1ccc(CN2CCN(Cc3ccc4cccc(F)c4n3)CC2CCO)cc1 (stereo not drawn)	-1.9	0.653	-3.5	/	0.0	1.8	5.7
O=C(COC(=O)CNC(=O)c1ccc(Cl)cc1)Nc1ncc(C(F)(F)F)cc1Cl	-0.6	0.689	3.6	/	-0.6	4.5	3.6
COc1ccc([C@H]2CC(=O)C=C(/C=C/c3ccc(Cl)cc3)C2)cc1	0.7	/	-1.6	/	-0.4	2.6	2.4
CNC(=S)N1CCn2cccc2C1c1ccc(F)cc1 (stereo not drawn)	0.6	0.7	4.9	7.2%	1.5	2.7	4.7
COC(=O)C1=C(CSc2nnnn2C)NC(=O)NC1c1cc(C)ccc1C (stereo not drawn)	-2.8	0.782	5.5	-2.8%	1.7	0.1	4.3
Cc1noc2ncnc(Sc3ccc(Cl)cc3)c12	-3.1	0.767	19.5	4.9%	0.6	-1.9	4.4
Cc1ccc(CCNC(=O)c2ccc(CS(=O)(=O)Cc3ccc(F)cc3)o2)cc1	0.0	0.704	-4.8	/	2.0	-3.1	0.2
CCOc1ccc(C2N(c3ccc(Cl)cc3)C(=O)C3CCCN32)cc1OC (stereo not drawn)	11.7	0.732	2.2	16.4%	-0.9	-4.4	-1.8
Cc1cccc(N2C(=S)NC3c4ccccc4OC2(C)C3C(=O)N(C)C)c1 (stereo not drawn)	-1.3	0.681	-1.5	/	0.5	-3.6	2.9
CCOC(=O)N1CCN(C(=O)CSCc2ccccc2Cl)CC1	-0.2	0.704	0.1	0.7%	0.5	9.1	1.9
COc1ccc(S(=O)(=O)N2CCN(C(=O)C3CC(=O)N(c4ccccc4F)C3)CC2)cc1OC (stereo not drawn)	2.0	0.673	11.5	/	/	/	-0.9
CCN(CC)S(=O)(=O)c1ccc(C)c(NC(=O)COC(=O)CNC(=O)c2ccc(C(C)(C)C)cc2)c1	8.3	0.661	-4.8	0.3%	0.7	-0.7	4.8
CC(C)(C)c1ccc(-n2ncc3c2CCCC3NC(=O)CCN2CCCO2)cc1 (stereo not drawn)	-0.9	0.718	6.1	/	-1.5	0.1	3.8
CCn1nc(C(=O)NC2=NCCS2)c2ccccc2c1=O	0.0	0.778	-4.5	2.2%	-0.2	-0.1	-1.4
